SARS PLpro yeast: blocks SARS-CoV papain-like protease in a yeast assay; Potency, µM (highest dose often 32.9 µM), without a hit: top-dose activity, positive = growth rescue; 330,000 compounds, 0.19% hits; S. cerevisiae expressing SARS-CoV PLpro, growth rescue; control for the full effect not named in the record; active means well fitted rising curve with a large enough effect; inconclusive means small, poorly fitted or top-dose-only effect; inactive means no such curve, though single readings can be large or run the other way; further: 0% is about no effect; nearly all actives have a fitted effect of over 55% in size; growth read by luminescence after 48 h
StopGo reporter: lowers the luciferase signal of an FMDV 2A StopGo reporter. human cells with a luciferase reporter of 2A StopGo recoding; control for the full effect not named in the record. Potency, µM (series often up to 57.9 µM), inactives show at the highest dose signal change, negative = less light. 410,000 compounds, 1.2% hits; active = well fitted falling curve with a large enough effect; inconclusive = small, poorly fitted or top-dose-only effect; inactive = no such curve, though single readings can be large or run the other way; tested in HEK293T cells; further: on the % scale 0 is the no-effect control and ±100 the full control effect; nearly all actives have a fitted effect of over 45% in size; luciferase light after 4 h
RE007 growth inh: less growth of the S. pombe RE007 Vpr strain | S. pombe RE007 Vpr strain, BacTiter-Glo ATP luminescence, 24 h; control for the full effect not named in the record | Potency, µM (series often up to 92.2 µM), for the others: top-dose activity change, negative = less growth | 360,000 compounds, 0.21% hits | AID 651644; active = well fitted falling curve with a large enough effect; inconclusive = small, poorly fitted or top-dose-only effect; inactive = no such curve, though single readings can be large or run the other way;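 further: on the % scale 0 is the no-effect control and ±100 the full control effect; nearly all actives have a fitted effect of over 50% in size; the assay follows cell death caused by Vpr and the record does not say whether a fall means rescue or toxicity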
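Fission yeast strain RE007, carrying one chromosomally integrated HIV-1 vpr copy, was seeded at OD 0.01 in PMG+AL medium with 23 nL pinned compound. After 24 h at 30 °C and 99% humidity, viability was read by BacTiter-Glo luminescence.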
* marks the source's active call; other numbers are inactive results; ? = inconclusive; [ ] = another dose, or the depositor's remark. Potency means the concentration at half of the fitted maximal effect.

SMILES	SARS PLpro yeast	StopGo reporter	RE007 growth inh
O=C1N[C@@H](Cc2ccccc2)COC(=O)[C@@H](Cc2ccc(F)cc2)CC/C=C/C[C@H]1CC(=O)N(CCO)Cc1ccccc1	4%	?	-3%
COc1cc(C(=O)OCc2cccc(S(=O)(=O)N3CCOCC3)c2)ccc1OCC(C)C	-8%	-3%	-5%
O=C(Nc1cccc(S(=O)(=O)N2CCOCC2)c1)c1cc(=O)[nH]c2ccccc12	2%	-26%	7%
CCOC(=O)C1=C(COC(=O)Cc2ccc(Cl)cc2)NC(=O)NC1C (stereo not given)	-2%	-20%	14%
Cc1nc(-c2ccccc2)sc1-c1ccnn1C	-2%	16%	-24%
Cc1ccc(-c2cc(C(=O)N3CCCCC3)c3ccccc3n2)cc1C	-60%	15%	0%
O=C(COC(=O)c1cc[n+]([O-])cc1)NCCc1ccc(Cl)cc1Cl	-1%	-7%	-13%
O=C(CN1CCN(S(=O)(=O)c2cccc(Br)c2)CC1)NCCc1cccs1	5%	-11%	-7%
CCCNC(=O)C(Cc1ccccc1)NC(=O)c1cccc([N+](=O)[O-])c1 (stereo not given)	6%	-7%	10%
COc1ccc(CCNC(=O)C2CCC(=O)N2CCc2ccccc2)cc1OC (stereo not given)	1%	-17%	0%
COCCn1c(SCC(=O)Nc2ccccc2)nc2c(oc3ccccc32)c1=O	6%	-6%	8%
Cc1noc(C)c1CSCC(=O)Nc1ccc(S(C)(=O)=O)cc1	3%	-9%	-7%
CN(C(=O)Cn1nc(C(=O)O)c2ccccc2c1=O)C1(C#N)CCCCC1	25%	-23%	4%
CC(C)OCCCNC(=O)c1cccc2c1C(=O)c1ccc(Cl)cc1S2(=O)=O	-12%	-23%	9%
COc1ccc(-c2cn(CCO)c(-c3ccncc3)n2)cc1	2%	3%	11%
CCOC(=O)CCCCCC(=O)Nc1ccc2c(c1)C(=O)N([C@H](C)CO)C[C@@H](C)[C@H](CN(C)Cc1ccc3c(c1)OCO3)O2	4%	-14%	-20%
Cc1cc(F)ccc1NC(=O)CCc1ccc(S(=O)(=O)N2CCOCC2)cc1	0%	-25%	11%
O=C(c1cc(Cl)ccc1O)N1CCN(S(=O)(=O)Cc2ccccc2)CC1	-2%	2%	-2%
COc1ccc(NC(=O)N(C)C[C@H]2Oc3c(NC(=O)c4ccncc4)cccc3C(=O)N([C@H](C)CO)C[C@@H]2C)cc1	7%	0%	-2%
CC(=O)C[C@@H](O)CC(=O)[C@H]1OC(=O)CC/C=C\Cc2ccccc21	7%	-12%	-11%
COc1cc(C(=O)OCC(=O)Nc2sccc2C(N)=O)cc(OC)c1OC	0%	?	4%
Cc1ccc(NC(=O)c2ccc(N3CCCC3=O)cc2)cc1S(=O)(=O)N1CCCCC1	0%	-18%	14%
Cc1c(C#N)c(O)n(C)c(=O)c1N=Nc1ccc(S(N)(=O)=O)cc1	0%	52%[activator]	6%
O=C(N/N=C/c1cc(Cl)ccc1O)c1ccccc1Br	-27%	19%	?
Cc1cc(NC(=O)C(C)SCC(=O)Nc2nc3c(F)cc(F)cc3s2)no1 (stereo not given)	7%	14%	-11%
New compounds follow
SMILES	SARS PLpro yeast	StopGo reporter	RE007 growth inh
CCN1C(=O)[C@H]2[C@@H](c3ccc(-c4ccc5c(c4)OCO5)cc3)N3CCC[C@@]3(C(=O)OC)[C@H]2C1=O	2%	?	-1%
C#CCOCCOCCOCCNc1nc(N2CCN(C(=O)[C@H]([C@@H](C)O)n3cc(CCCCN)nn3)CC2)nc(N2CCN(C(=O)[C@H](CCCCN)n3cc(CCC(=O)O)nn3)CC2)n1	2%	-10%	-9%
CC1(c2nnc(Cc3ccccc3)o2)CC(c2cccc([N+](=O)[O-])c2)=NO1 (stereo not given)	2%	-8%	-3%
Nc1sc2c([n+]1CCCS(=O)(=O)[O-])CCCC2	2%	36%[activator]	-4%
CC(Sc1nnc(Cc2ccccc2)o1)C(=O)NC1(C#N)CCCCC1 (stereo not given)	0%	56%[activator]	-6%
Cc1ccc(CNC(=O)COC(=O)c2nc(-c3ccccc3)oc2C)cc1	4%	-10%	-10%
COc1cc(C(=O)Nc2cccc(C)c2C)ccc1OCC(=O)N1CCOCC1	1%	-8%	1%
C[C@H](CO)N1C[C@H](C)[C@@H](CN(C)S(=O)(=O)c2ccc(F)cc2)Oc2ccc(NC(=O)Cc3ccccc3)cc2C1=O	4%	-23%	-3%
C=CCSc1nnc(NC(=O)C2CC(=O)N(Cc3ccc(C)cc3)C2)s1 (stereo not given)	-3%	-19%	9%
CCc1ccccc1Nc1nc(N)nc(COC(=O)c2c(C)noc2C)n1	-4%	-21%	3%
COC(=O)[C@]1(C)N[C@H](CN(C)C(=O)c2ccc(C(C)(C)C)cc2)[C@@H]2C(=O)N(C)C(=O)[C@@H]21	-1%	-12%	2%
CC(C)NC(=O)c1onc(CSc2ccc(F)cc2)c1C(=O)NC(C)C	-1%	-4%	-9%
CN(CCCNC(=O)Cn1cccc1C(=O)c1ccccc1)C1CCCCC1	8%	2%	0%
C=CCN1C(=O)c2ccc(C(=O)N3CCN(S(=O)(=O)c4cccc([N+](=O)[O-])c4)CC3)cc2C1=O	2%	-20%	-8%
COc1ccccc1C(CNC(=O)c1cc(S(=O)(=O)N2CCOCC2)ccc1C)N1CCCC1 (stereo not given)	-5%	-14%	?
CN(CC(=O)Nc1ccccc1Br)C(=O)CNC(=O)C1CCCCC1	7%	-3%	4%
CC1CCCCC1NC(=O)COC(=O)c1cccn1C (stereo not given)	5%	7%	3%
Cc1cc(NC(=O)c2cc(S(=O)(=O)N3CCCCC3)ccc2C)no1	4%	-4%	1%
CNc1snc(C)c1C(=O)OCC(=O)N(C)c1ccccc1	12%	-21%	3%
COc1ccc(NC(=O)[C@@H]2CCCN2C(=O)c2cccs2)cc1S(=O)(=O)N1CCCCC1	-1%	2%	-2%
Cc1ccc(C(CC(=O)O)NC(=O)c2ccc(S(=O)(=O)N3CC(C)OC(C)C3)cc2)cc1 (stereo not given)	-2%	-10%	2%
O=C(Nc1ccn(CC(=O)N2CCN(c3ccccn3)CC2)c(=O)n1)OCc1ccccc1	-3%	-11%	11%
C/C=C1\NC(=O)[C@H](C)NC(=O)[C@@H](NC(=O)[C@@H](Cc2ccc(O)cc2)NC(=O)[C@@H](NC(=O)/C(C)=C/C)C(C)C)[C@@H](C)OC(=O)[C@H](CCCCc2ccc(O)cc2)NC(=O)[C@@H](CCC(=O)O)NC1=O	0%	-15%	1%
CCc1ccc(C2CC(=O)N(c3ccc(F)cc3)C3=C2C(=O)OC3)cc1 (stereo not given)	0%	-10%	13%
CCO[C@@H]1c2c(ccc3ccc(=O)oc23)OC(C)(C)[C@@H]1O	2%	-16%	10%

Complete entries from above. Order of values: SARS PLpro yeast, StopGo reporter, RE007 growth inh
CC(C)NC(=O)c1onc(CSc2ccc(F)cc2)c1C(=O)NC(C)C is listed as -1%, -4%, -9%
Cc1ccc(CNC(=O)COC(=O)c2nc(-c3ccccc3)oc2C)cc1 is listed as 4%, -10%, -10%
Nc1sc2c([n+]1CCCS(=O)(=O)[O-])CCCC2 is listed as 2%, 36%[activator], -4%
CCN1C(=O)[C@H]2[C@@H](c3ccc(-c4ccc5c(c4)OCO5)cc3)N3CCC[C@@]3(C(=O)OC)[C@H]2C1=O is listed as 2%, ?, -1%
CCO[C@@H]1c2c(ccc3ccc(=O)oc23)OC(C)(C)[C@@H]1O is listed as 2%, -16%, 10%

(continued)
SMILES	SARS PLpro yeast	StopGo reporter	RE007 growth inh
O=C(NCC(c1ccco1)N1CCCC1)c1cc(S(=O)(=O)N2CCCCC2)ccc1Cl (stereo not given)	0%	-9%	29%
CCN(CC)S(=O)(=O)c1ccc2c(c1)c(=O)c(C(=O)NCc1ccco1)cn2C	4%	-7%	4%
O=C(CCc1ccccc1Cl)N1CCN(S(=O)(=O)c2ccccc2)CC1	-10%	-10%	9%
CCN1C(=O)[C@H]2[C@@H](c3ccc(-c4cccc(Cl)c4)cc3)N[C@@](C)(C(=O)OC)[C@H]2C1=O	1%	?	7%
COc1ccc(-c2c(-c3ccc(OC)nc3)c3ccccc3n2C)cc1	9%	-2%	-5%
COc1ccc(NC(=O)CCOc2ccc(C)cc2)cc1S(=O)(=O)N1CCCCC1	-2%	?	-6%
COc1ccccc1N1CCN(C(=O)c2ccc(-c3nc4ccccc4s3)o2)CC1	-5%	0%	-1%
COc1cc(CC(=O)N2C[C@H]3C[C@@H](C2)c2cccc(=O)n2C3)cc(OC)c1OC	-3%	-22%	-7%
Cc1cc(C)n(-c2ccc(C(=O)N3CC(C)OC(C)C3)cc2)n1 (stereo not given)	-1%	2%	-2%
COc1cc(OC)cc(-c2c(-c3ccc(F)cc3)c3cc(-c4ccc5cc[nH]c5c4)ccc3n2C)c1	0%	21%	8%
COC(=O)C1=C(c2ccc(-c3ccccc3)c(F)c2)C[C@@H]2CC[C@H]1N2C(=O)NC1CCCCC1	0%	?	-7%
CCN(CC)C(=S)Nc1c(C)n(C)n(-c2ccccc2)c1=O	-6%	1%	-4%
CCOc1ccc(C(=O)NCC(=O)OCC(=O)N2CCCC2)cc1	3%	50%[activator]	9%
COC(=O)CNC(=O)COC(=O)Cc1ccc(Cl)cc1	1%	-9%	6%
NNc1nc2c(-c3ccc(Cl)cc3)nnn2c2ccccc12	-2%	-4%	-4%
Cc1ccccc1OC(=O)c1cccc(S(=O)(=O)N2CCN(C)CC2)c1	-1%	-18%	1%
O=C(NCC1CCCO1)c1cccc(S(=O)(=O)Nc2ccc(F)cc2)c1 (stereo not given)	5%	36%[activator]	-6%
Cc1cc(C(=O)NNC(=O)C(C)NS(=O)(=O)c2ccccc2F)c(C)o1 (stereo not given)	-4%	-23%	3%
COC(=O)c1cc(NC(=O)COC(=O)C2COc3ccccc3O2)cc(C(=O)OC)c1 (stereo not given)	-6%	-4%	17%
O=c1cc(CO)oc2ccccc12	-5%	-11%	-10%
O=C(C[C@H]1C/C=C\CC[C@H](Cc2ccc(F)cc2)C(=O)O[C@@H](c2ccccc2)CNC1=O)N[C@H](CO)Cc1ccccc1	5%	-10%	-3%
CCN(CC)CCN(C(=O)c1ccccc1OC)c1nc2ccc(F)cc2s1	5%	-12%	-22%
COC(=O)C1C2CC[C@@H](CC1OC(=O)c1ccccc1)N2 (stereo not given in full)	2%	-26%	1%
CCC1(CC)NC(=O)N(CC(=O)OCC(=O)Nc2ccccc2OC(F)F)C1=O	0%	-18%	2%
O=C1c2ccccc2C(=O)N1CCCCCCc1ccccc1	0%	11%	-2%

Arranged by formula weight (highest first): some entries from above
SMILES	SARS PLpro yeast	StopGo reporter	RE007 growth inh
COc1cc(OC)cc(-c2c(-c3ccc(F)cc3)c3cc(-c4ccc5cc[nH]c5c4)ccc3n2C)c1	0%	21%	8%
COc1ccc(NC(=O)CCOc2ccc(C)cc2)cc1S(=O)(=O)N1CCCCC1	-2%	?	-6%
CCC1(CC)NC(=O)N(CC(=O)OCC(=O)Nc2ccccc2OC(F)F)C1=O	0%	-18%	2%

Carrying on:
SMILES	SARS PLpro yeast	StopGo reporter	RE007 growth inh
Cc1ccc(S(=O)(=O)N2[C@@H](c3cccc4ccccc34)C(C(=O)O)=C[C@H]2C(C)(C)C)cc1	-2%	29%	8%
O=C(NC1CCCc2ccccc21)c1ccc(S(=O)(=O)N2CCOCC2)cc1 (stereo not given)	-7%	-4%	2%
Cc1ccc2c(c1)N(C(C)C(=O)NCc1cccs1)C(=O)CO2 (stereo not given)	-1%	-5%	-3%
Cc1cc(C(=O)COC(=O)c2cc(Cl)c(O)c(Cl)c2)c(C)n1C	1%	29%	-10%
O=C(CCS(=O)(=O)c1ccccc1)NNC(=O)CSc1ccccc1F	3%	-6%	-10%
O=C1C=C(c2ccccc2Oc2ccccc2)C[C@@H](c2ccc3c(c2)OCO3)C1	3%	?	-11%
N#Cc1ccccc1OCC(=O)NNC(=O)c1ccncc1	1%	-16%	4%
O=C(CN1CCN(C(C(=O)Nc2ccc(Cl)cc2C(F)(F)F)c2ccccc2)CC1)NC1CC1 (stereo not given)	2%	-26%	-2%
OC[C@H]1O[C@@H](Oc2ccc3cc(Br)ccc3c2)[C@H](O)[C@@H](O)[C@H]1O	-8%	1%	4%
O=C(OCCc1cc2ccccc2c(=O)o1)N1CCOCC1	2%	33%[activator]	1%
Cc1nc(C)c(C(=O)OCC(=O)Nc2ccccc2)s1	-1%	26%	13%
COc1ccc(Cl)cc1NC(=O)CN(C)C(=O)c1cccc(-n2cnnn2)c1	-2%	-30%	-2%
CCN(C(=O)CSc1nnc(-c2c[nH]c3ccccc23)n1C1CC1)C1CCS(=O)(=O)C1 (stereo not given)	3%	-16%	?
C[C@H](CO)N1C[C@H](C)[C@@H](CN(C)S(=O)(=O)c2ccccc2)Oc2c(cccc2N(C)C)C1=O	-8%	4%	0%
N/C(=N\OC(=O)c1cccnc1)c1ccccc1Cl	-10%	72%[activator]	-29%
CCOC(=O)CC(=O)NC1(Cc2ccc(O)cc2)CCCCC1	-2%	-15%	-3%

Compound activity as filed in PubChem.

A portion of the library; the hit share may differ from the screen's.
